# Assay outcomes (PubChem BioAssay)
# HNF4A DNA FP: change in binding of human HNF4 alpha to DNA | HNF4a-FITC DNA binding, fluorescence polarization, 1 h | activity change, % at 10 µM | actives 0.3% (n = 360,000); in the data active means activity change above about 30%, passing the limit was not always enough;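 further: controls were the assay level and a saturating level of protein; the project sought stronger binding though the title names inhibitors; some compounds called inactive have numbers as strong as hits; positive values seem to mean higher polarization but the record does not say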
# ALR inh: human ALR oxidase inhibition via reduced H2O2; P55789; purified ALR, DTT oxidation, H2O2 HRP-luminol luminescence; inhibition, % (test concentration not listed); actives 3.8% (n = 290,000);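 active means mean and each replicate at 75% or more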;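 further: stock transfer was 7.5 nL into about 7.5 µL; 0% = neutral wells and 100% = wells with inactivated enzyme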
# Target sequence (P55789 whole entry, looked up): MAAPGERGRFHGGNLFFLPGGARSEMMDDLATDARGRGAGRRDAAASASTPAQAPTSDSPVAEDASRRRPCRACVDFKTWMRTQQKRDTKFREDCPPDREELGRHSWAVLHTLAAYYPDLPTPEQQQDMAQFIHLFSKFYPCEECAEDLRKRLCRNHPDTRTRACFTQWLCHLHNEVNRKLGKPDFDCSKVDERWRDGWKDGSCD
# B2AR ag: agonists of human beta-2 adrenergic receptor inducing internalization; Am2.2-beta2AR cells, FAP receptor internalization, flow cytometry; reference of the scale not given here; response, % (no concentration beside the values); actives 0.43% (n = 340,000); AID 504454;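 active means response above a set limit, near 3 SD of response in nonfluorescent compounds, cut at about 42% in these data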;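 further: stock transfer was 100 nL into about 11 µL; a reference agonist was the positive control; negative values mostly stem from fluorescent compounds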
# FGF22 binding: binders of recombinant human FGF22 by thermal shift; SYPRO orange fluorescence; percent of sucrose octasulfate shift, DMSO zero; calls only at 9.99 µM; AID 651658; actives 1.5% (n = 340,000);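 active means melting point raised past a set limit in the mean and every replicate; three in four hits are not shown here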
# Target sequence (Q9HCT0 whole entry, looked up): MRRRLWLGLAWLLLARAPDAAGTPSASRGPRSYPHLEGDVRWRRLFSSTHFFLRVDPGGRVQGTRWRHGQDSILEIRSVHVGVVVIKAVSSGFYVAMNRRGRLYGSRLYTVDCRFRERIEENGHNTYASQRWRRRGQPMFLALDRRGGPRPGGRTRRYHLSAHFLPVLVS
# UCH37 inh: inhibitors of human deubiquitinating enzyme UCH37; purified proteasome/UCH37, Ub-AMC cleavage fluorescence; inhibition, % (concentration not given with the values); actives 0.33% (n = 330,000); AID 588478;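 active means mean of two replicates above 20%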;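 further: 0% = compound-free wells with enzyme and 100% = wells lacking proteasome; stock transfer was 100 nL into about 20 µL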
# Target sequence (Q9Y5K5 whole entry, looked up): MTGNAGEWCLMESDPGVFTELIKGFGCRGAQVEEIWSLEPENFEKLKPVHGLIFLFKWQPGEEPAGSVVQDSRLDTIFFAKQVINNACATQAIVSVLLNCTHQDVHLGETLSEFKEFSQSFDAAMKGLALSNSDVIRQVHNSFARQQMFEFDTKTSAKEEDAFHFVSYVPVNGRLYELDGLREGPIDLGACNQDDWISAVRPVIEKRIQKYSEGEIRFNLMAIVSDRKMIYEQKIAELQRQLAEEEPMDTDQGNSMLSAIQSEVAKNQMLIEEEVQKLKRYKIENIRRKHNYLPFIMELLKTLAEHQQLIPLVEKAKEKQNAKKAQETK
#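 Assay system: Proteasome-bound UCH37. Buffer or medium: pH 7.4 Tris-HCl (50 mM) with ovalbumin, ATP-MgCl2, DTT. Incubation: 30 min preincubation with enzyme, 25 min cleavage at room temperature. Measured by: fluorescence, ex 355 nm, em 460 nm. Read-out basis: percent inhibition. Control set: wells without proteasome as full block, compound-free enzyme plus substrate as uninhibited.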
# Ecoli growth: blocks Escherichia coli growth; OD600 absorbance (concentration not given with the values); OD600, 23 h; hits give low values; actives 0.21% (n = 330,000);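 active means OD600 absorbance below the run mean of sample wells minus 3.6 SD, in any replicate, cut at about 0.56 in these data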;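 further: stock transfer was 300 nL into about 60 µL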
# LANA-H2B inh: blocks KSHV LANA binding to histone H2A/H2B. Q9QR71. cell-free LANA-H2A/H2B peptide, fluorescence polarization. inhibition, % (test concentration not listed). actives 0.6% (n = 320,000). AID 2629; in the data active means inhibition mostly above about 10%, no sharp cut-off; inactive means mostly below about 6.7%;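 further: stock transfer was 7.5 nL into about 10 µL; 0% = median of vehicle wells and 100% = median of positive control wells; one replicate is shown; the record names a cut of 25% in any replicate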
# Active calls of the source: *; i = inactive; / = no result given. These rows are one share of the data; rates above refer to the full screens.
canonical_smiles	HNF4A DNA FP	ALR inh	B2AR ag	FGF22 binding	UCH37 inh	Ecoli growth	LANA-H2B inh
CCOC(=O)C1CCN(c2nc3c(C)cccn3c(=O)c2/C=C(\C#N)S(=O)(=O)c2ccccc2)CC1	6.2	2	13	i	1.7	0.67	-0.5
O=C(COC(=O)c1sc2cc(F)ccc2c1Cl)Nc1ncc(Cl)cc1Cl	1.7	-5	2	i	-0.3	0.69	2.0
CC(=O)Oc1ccc(-c2cccc(C(=O)NCCCO)c2)cc1	-0.6	/	-7	/	1.3	0.69	/
Cc1cc(S(=O)(=O)N2CCN(Cc3ccc4c(c3)OCO4)CC2)cc(C)c1N1CCCC1=O	-3.6	/	-18	i	1.9	0.66	0.8
COc1ccc(-c2noc(CCC(=O)N3CCN(c4ccccc4Cl)CC3)n2)cc1	-0.5	/	-7	i	1.5	0.72	/
C=CCn1cccc(/C=C/C(=O)c2ccc(C(C)(C)C)cc2)c1=S	4.0	-1	12	/	4.3	0.72	/
CC(C)COc1cccc(C(=O)N2CCN(C(=O)c3ccco3)CC2)c1	-0.6	-4	-14	i	0.1	0.68	-6.9
CN(C)c1ccc(CNS(=O)(=O)c2ccc3c(c2)NC(=O)CS3)cc1	3.4	99*	7	i	1.9	0.69	3.7
O=C(NCC1CCOCC1)C1CCC(=O)N(Cc2cccc(C(F)(F)F)c2)C1 (stereo unspecified)	-3.1	-1	-9	i	5.4	0.69	-0.8
O=S(=O)(c1ccc(N2CCN(CCO)CC2)nc1)N1CCCCC1	-1.4	/	0	/	5.0	0.77	4.0
O=S(=O)(O)c1cnccc1Nc1cccc(C(F)(F)F)c1	-3.5	-2	-4	i	0.8	0.67	-1.7
COC(=O)c1ccc(C23CC4(C2)[C@H](CN(CC2CCCCC2)[C@@H]4c2ccccc2)C3c2ccccc2)cc1 (stereo partly specified)	2.5	-11	-1	i	1.2	/	-2.3
COc1cc(NC(=O)NCCN2CCN(c3ccccc3)CC2)cc(OC)c1OC	-1.6	98*	5	i	5.1	0.67	-1.9
Cc1ccc(C)c(C(=O)CSc2n[nH]c(C)n2)c1	0.5	5	-1	/	1.2	0.66	4.1
C=CCc1cccc(CNc2nc3ccccc3n2C)c1O	1.8	/	-1	i	2.3	0.69	-1.2
O=C(CNC(=O)c1ccccc1Cl)OC1CCOC1=O (stereo unspecified)	-1.8	-2	-9	i	2.4	0.68	1.8
Cc1ccc(Nc2nc(N)nc(CSc3nccn3C)n2)cc1	1.0	-8	1	/	4.5	0.62	-1.5
Cn1c(SCC(=O)Nc2cccc(NC(=O)c3cccs3)c2)nnc1-c1ccncc1	-1.9	-9	-8	/	6.5	0.74	-3.1
COc1ccc(C)cc1NC(=O)C1CCCCC1C(=O)O (stereo unspecified)	3.0	-59	4	/	5.4	0.66	-1.4
FC(F)(F)c1cccnc1N1CCN(c2ncnc3nc[nH]c23)CC1	2.8	-9	-3	i	3.3	0.7	-2.5

# Remaining list, next part.
canonical_smiles	HNF4A DNA FP	ALR inh	B2AR ag	FGF22 binding	UCH37 inh	Ecoli growth	LANA-H2B inh
O=C(NCc1ccco1)c1cccc(NC(=O)c2ccco2)c1	-0.8	-4	-15	/	5.3	0.6	4.6
c1cnc2ccc(C(c3nnnn3C3CCCCC3)N3CCCCC3)cc2c1 (stereo unspecified)	2.6	-19	1	/	0.7	0.75	0.6
Cc1ccc2c(c1)N(S(=O)(=O)c1cc(-c3cc(C)no3)ccc1C)CCO2	0.4	-8	-4	i	1.6	0.69	-8.7
C#CCOc1ccc(C2C3=C(CC(C)(C)CC3=O)N(CC(=O)O)C3=C2C(=O)CC(C)(C)C3)cc1	-1.4	-1	-3	i	i	0.64	-3.7
Cn1ccnc1SCC(=O)Nc1cccc(S(=O)(=O)N2CCCCCC2)c1	-1.5	/	-3	i	0.5	0.62	-5.9
CC(C)CC(=O)Nc1cccc(-c2cn3ccsc3n2)c1	1.3	-7	-3	/	0.5	0.69	7.9
COc1ccc(C(C)=O)cc1COC(=O)CNC(=O)c1cc(C)cc(C)c1	0.7	1	-3	/	-1.6	0.69	-0.5
COc1ccc(C2c3ccc(O)cc3Oc3ncn4nc(-c5ccccn5)nc4c32)cc1OC (stereo unspecified)	3.8	/	-6	i	1.9	0.63	-0.5
Cc1ccc2nc(SCC(=O)Nc3ccccc3N3CCOCC3)c(C#N)cc2c1	-0.7	-14	6	/	0.5	0.76	3.0
CC(C)OCc1c(C(=O)OC/C(O)=C(\C#N)c2nc3ccccc3[nH]2)oc2ccccc12	7.0	8	8	i	1.4	0.65	-0.6
CCN1CCN(C(c2cccs2)C(C)NC(=O)NC2CCCCC2)CC1 (stereo unspecified)	-1.2	-6	7	i	1.3	0.73	3.7
O=C(COc1ccc(Cl)cc1Cl)N(C1CCCCC1)C1CCS(=O)(=O)C1 (stereo unspecified)	-1.8	-8	-13	i	-2.1	0.69	-1.6
O=C(COC(=O)Cn1[nH]c(=O)c2ccccc2c1=O)NNC(=O)c1ccccc1	3.5	-3	-8	i	1.8	0.68	-2.0
CCOCCn1ccc2c(OCC(=O)Nc3ccc(OC)c(OC)c3)cccc2c1=O	1.0	/	6	i	-1.3	0.72	/
O=C(Nc1ccc(O)cc1C(=O)O)c1cccc(Br)c1	1.1	31	4	/	5.2	0.7	2.0
O=C(CCNC(=O)c1ccccc1)NCCc1ccc(Cl)cc1	0.5	-9	0	i	-0.2	0.71	2.8
COc1ccc(-c2[nH]ncc2CN2CCCC(C(=O)c3cccc(OC)c3)C2)cc1 (stereo unspecified)	3.7	5	1	i	-1.8	0.68	-0.5
C[C@@H](C(=O)NCc1ccccn1)[C@H]1C[C@]1(C)[C@H](NC(=O)OCc1ccccc1)c1ccccc1	-1.4	-4	0	i	-1.2	/	3.6
CCCCC(CCc1ccccn1)C(=O)c1ccccc1 (stereo unspecified)	-1.9	/	36	i	/	/	/
Cc1[nH]c2ccccc2c1C(c1ccccn1)N1CCC(C)CC1 (stereo unspecified)	-2.2	24	4	/	5.4	0.77	3.6

# Continuation.
canonical_smiles	HNF4A DNA FP	ALR inh	B2AR ag	FGF22 binding	UCH37 inh	Ecoli growth	LANA-H2B inh
CCCC[C@@H]1C[C@H]1[C@@H](NC(=O)c1ccco1)c1ccc(C(=O)OC)cc1	/	1	/	i	3.8	/	1.2
COCCNC(=S)N/N=C(\C)c1ccc2cc(OC)ccc2c1	3.7	-11	-5	/	/	/	-2.5
Cc1ccc(NC(=O)CC2C(=O)NCCN2C(=S)Nc2ccccc2)c(C)c1 (stereo unspecified)	-0.5	-3	2	/	1.0	0.68	-4.7
COC(=O)c1cc(NC(=O)CN(c2cccc(OC)c2)S(=O)(=O)c2ccccc2)ccc1Cl	3.1	-4	14	i	-0.3	0.73	1.1
CC(C)CC(=O)NC1(C(F)(F)F)C(=O)Nc2c1c(=O)[nH]c(=O)n2Cc1ccco1 (stereo unspecified)	1.1	-2	6	/	2.4	0.73	18
Cc1nc(NC(=O)CSc2nccn2C)sc1C(=O)N(C)C	-2.5	58	4	i	-2.3	0.7	-19
N#CCSc1nnc2sc3ccccc3n12	-1.1	-12	-8	i	2.8	0.69	3.1
O=C(CCN=C1NS(=O)(=O)c2ccccc21)OCc1nnc(-c2ccc([N+](=O)[O-])cc2)o1	-2.9	8	-7	i	6.2	0.72	-1.1
COCCn1nnnc1CN1CCC(C)CC1	-0.1	0	-3	/	2.3	0.78	-1.3
CCOC(=S)SCC(=O)N1CCc2ccccc2C1C1C(=O)CC(C)(C)CC1=O (stereo unspecified)	5.0	-6	-3	i	1.4	0.7	-4.2
CC(NC(=O)c1ccccc1Cl)NC(=O)c1ccccc1Cl	-0.9	-16	4	i	1.4	0.64	0.6
N/C(=N\OS(=O)(=O)c1ccccc1)c1ccccn1	4.8	-26	1	/	-6.2	0.7	0.8
O=C(O)CC(SCC(=O)Nc1ccc(S(=O)(=O)N2CCCC2)cc1)C(=O)O (stereo unspecified)	-2.5	100*	5	i	-0.5	0.68	3.7
O=S(=O)(Nc1c(S(=O)(=O)c2ccccc2)c2nc3ccccc3nc2n1C1CCCCC1)c1ccccc1	0.8	-8	18	i	i	0.68	0.6
OCCNc1ccc(Cl)cc1	0.1	-5	0	/	-3.3	0.72	1.9
O=C(Nc1c2c(nn1-c1ccc(F)cc1)CS(=O)(=O)C2)C1CCCC1	0.1	0	0	i	2.3	0.68	-2.1
COc1ccc(CCN2CN(S(=O)(=O)c3ccc(C)cc3)c3nc4ccccc4nc32)cc1OC	-1.8	-7	-2	/	6.2	0.72	-4.3
O=C(O)CSc1nnc(-c2ccc(Cl)cc2Cl)n1Cc1ccccc1	-4.2	0	8	i	0.1	0.67	9.7
COc1ccc(NC(C)=O)cc1NC(=O)CN1CCN(c2ccccn2)CC1	-0.3	-9	-13	/	/	/	0.3
CCOc1c(Nc2ccccc2O)c(=O)c1=O	2.0	40	10	i	3.9	0.67	-1.0

# The list continues.
canonical_smiles	HNF4A DNA FP	ALR inh	B2AR ag	FGF22 binding	UCH37 inh	Ecoli growth	LANA-H2B inh
COCCCNS(=O)(=O)c1ccc(Cl)c(C(F)(F)F)c1	-0.8	-6	5	i	1.3	0.69	2.9
Cc1cccc(C(=O)O/N=C(\N)c2cccc([N+](=O)[O-])c2)c1	4.0	-31	4	i	/	/	1.0
Cc1ccccc1N1CCN(C(=O)C2CCCCC2)CC1	0.3	29	10	/	2.6	0.68	3.6
COc1ccccc1C(=O)NCC(=O)OCC(=O)c1ccc(Cl)s1	-0.7	-3	3	i	3.9	0.68	-4.2
Cc1oc2c(CN3CCCC3)c(O)ccc2c(=O)c1-c1ccc(Br)cc1	6.7	-1	-8	i	-384	0.64	-0.8
COc1ccc(-c2nnc(SCC(=O)N3CCOCC3)n2C)cc1OC	3.8	/	6	/	3.0	0.69	0.1
COc1ccc(OC)c(CN2CCN(C(=O)CNC(=O)c3ccccc3F)CC2)c1	1.6	-3	-5	i	-1.2	0.71	-3.0
Nc1n[nH]c(N)c1N=Nc1ccc2c(c1)OCO2	3.3	/	-5	i	12	0.65	3.2
COc1cc(NC(=O)c2cc(-c3cccnc3)nc3ccc(Br)cc23)cc(OC)c1	2.8	-1	6	i	-1.6	0.73	0.2
Cc1ccc(CNC(=O)CNC(=S)N(Cc2ccccc2)Cc2ccccc2F)cc1	-3.4	/	4	i	3.2	0.74	/
CN(CCOC(=O)c1ccco1)Cc1ccccc1	-0.2	-2	-8	/	4.0	0.79	-1.7
COc1ccc(CC(=O)Nc2nnc(CC(C)C)s2)cc1S(=O)(=O)N1CCOCC1	0.9	/	-2	i	1.4	0.68	/
NC(=S)Cc1ccc(Cl)cc1Cl	4.1	2	1	i	3.8	0.65	1.3
COc1ccc(S(=O)(=O)N2CCC(C(=O)N3CCc4ccccc4C3)CC2)cc1C	-2.8	3	-2	/	1.5	0.76	3.5
CS(=O)c1ccccc1-c1nc(-c2cccc(Cl)c2)no1 (stereo unspecified)	-4.1	-8	-14	/	1.9	0.7	-3.1
COc1cccc(C(=O)NC(=S)Nc2nnn(C)n2)c1	-2.9	11	1	/	0.5	0.66	0.8

# Sorted by SMILES length (falling): some entries from above.
canonical_smiles	HNF4A DNA FP	ALR inh	B2AR ag	FGF22 binding	UCH37 inh	Ecoli growth	LANA-H2B inh
COc1cc(NC(=O)c2cc(-c3cccnc3)nc3ccc(Br)cc23)cc(OC)c1	2.8	-1	6	i	-1.6	0.73	0.2
COCCCNS(=O)(=O)c1ccc(Cl)c(C(F)(F)F)c1	-0.8	-6	5	i	1.3	0.69	2.9
COc1cccc(C(=O)NC(=S)Nc2nnn(C)n2)c1	-2.9	11	1	/	0.5	0.66	0.8
Cc1ccccc1N1CCN(C(=O)C2CCCCC2)CC1	0.3	29	10	/	2.6	0.68	3.6

# Another view of two compounds above.
# Fields – HNF4A DNA FP | ALR inh | B2AR ag | FGF22 binding | UCH37 inh | Ecoli growth | LANA-H2B inh
> CN(C)c1ccc(CNS(=O)(=O)c2ccc3c(c2)NC(=O)CS3)cc1
    3.4 | 99* | 7 | i | 1.9 | 0.69 | 3.7
> O=C(CCNC(=O)c1ccccc1)NCCc1ccc(Cl)cc1
    0.5 | -9 | 0 | i | -0.2 | 0.71 | 2.8
